Beta2AR agonist: activates human beta-2 adrenergic receptor causing internalization; Am2.2-beta2AR cells, FAP receptor internalization, flow cytometry; reference of the scale not given here; response, % (concentration not given with the values); hit rate 0.43% among 340,000; AID 504454;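 active means response above a set limit, near 3 SD of response in nonfluorescent compounds, cut at about 42% in these data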;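 further: stock transfer was 100 nL into about 11 µL; a reference agonist was the positive control; negative values mostly stem from fluorescent compounds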
Target sequence (P07550 whole entry, looked up): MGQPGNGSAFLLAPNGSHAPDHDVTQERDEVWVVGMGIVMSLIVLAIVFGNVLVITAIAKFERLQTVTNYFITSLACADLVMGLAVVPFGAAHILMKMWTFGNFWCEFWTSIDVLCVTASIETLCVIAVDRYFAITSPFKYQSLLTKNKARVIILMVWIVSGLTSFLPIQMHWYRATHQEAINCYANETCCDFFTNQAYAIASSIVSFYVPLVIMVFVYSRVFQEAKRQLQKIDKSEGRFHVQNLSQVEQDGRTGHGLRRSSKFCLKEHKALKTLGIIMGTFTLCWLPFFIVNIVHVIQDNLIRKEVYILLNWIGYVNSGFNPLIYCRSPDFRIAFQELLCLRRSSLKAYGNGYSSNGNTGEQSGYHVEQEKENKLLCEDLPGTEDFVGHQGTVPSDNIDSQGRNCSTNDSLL
ALR inh: blocks human ALR sulfhydryl oxidase activity; P55789; purified ALR, DTT oxidation, H2O2 HRP-luminol luminescence; inhibition, % (test concentration not listed); hit rate 3.8% among 290,000;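 active means mean and each replicate at 75% or more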;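 further: stock transfer was 7.5 nL into about 7.5 µL; 0% = neutral wells and 100% = wells with inactivated enzyme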
Target sequence (P55789 whole entry, looked up): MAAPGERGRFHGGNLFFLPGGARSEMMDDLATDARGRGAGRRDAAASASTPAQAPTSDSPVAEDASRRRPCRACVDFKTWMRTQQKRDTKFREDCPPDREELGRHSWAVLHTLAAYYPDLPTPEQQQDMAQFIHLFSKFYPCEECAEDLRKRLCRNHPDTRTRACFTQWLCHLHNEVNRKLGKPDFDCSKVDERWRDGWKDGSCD
UCH37 DUB inh: human UCH37 deubiquitinating enzyme inhibition; hit rate 0.33% among 330,000; Q9Y5K5; purified proteasome/UCH37, Ub-AMC cleavage fluorescence; inhibition, % (no concentration beside the values);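 active means mean of two replicates above 20%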;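 further: 0% = compound-free wells with enzyme and 100% = wells lacking proteasome; stock transfer was 100 nL into about 20 µL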
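Signal – fluorescence, ex 355 nm, em 460 nm · System – Proteasome-bound UCH37 · Input – 0.15 nM proteasome as dispensed · Timing – 30 min preincubation with enzyme, 25 min cleavage at room temperature · Read-out basis – percent inhibition of cleavage signal versus uninhibited and no-proteasome wells · Medium – Tris-HCl pH 7.4 with ATP-MgCl2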
Ecoli growth: inhibitors of Escherichia coli growth; OD600, 23 h; hits give low values; OD600 absorbance (test concentration not listed); hit rate 0.21% among 330,000;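 active means OD600 absorbance below the run mean of sample wells minus 3.6 SD, in any replicate, cut at about 0.56 in these data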;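 further: stock transfer was 300 nL into about 60 µL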
HNF4A DNA FP: change in binding of human HNF4 alpha to DNA; P41235; HNF4a-FITC DNA binding, fluorescence polarization, 1 h; activity change, % at 10 µM; hit rate 0.3% among 360,000; in the data active means activity change above about 30%, passing the limit was not always enough;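 further: controls were the assay level and a saturating level of protein; the project sought stronger binding though the title names inhibitors; some compounds called inactive have numbers as strong as hits; positive values seem to mean higher polarization but the record does not say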
Target sequence (P41235 whole entry, looked up): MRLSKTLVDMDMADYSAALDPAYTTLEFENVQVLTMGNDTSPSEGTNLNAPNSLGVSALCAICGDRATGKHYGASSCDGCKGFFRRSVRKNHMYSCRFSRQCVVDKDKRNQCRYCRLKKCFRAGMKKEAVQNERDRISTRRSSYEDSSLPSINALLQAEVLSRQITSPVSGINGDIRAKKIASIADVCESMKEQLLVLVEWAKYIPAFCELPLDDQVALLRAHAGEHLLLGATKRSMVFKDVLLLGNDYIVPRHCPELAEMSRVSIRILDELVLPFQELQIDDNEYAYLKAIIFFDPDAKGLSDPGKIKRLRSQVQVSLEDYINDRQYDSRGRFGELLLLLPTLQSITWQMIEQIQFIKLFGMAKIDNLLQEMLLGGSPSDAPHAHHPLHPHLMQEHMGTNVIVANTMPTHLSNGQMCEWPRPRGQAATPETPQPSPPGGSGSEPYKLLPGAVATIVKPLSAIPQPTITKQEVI
rRNA inh HTS: inhibitors of bacterial rRNA selective over humanized ribosomes; E. coli WT GFP vs humanized-ribosome RFP mutants, fluorescence, 24 h; hits give low values; DMSO median 0, no signal -100; GFP signal change (wild-type ribosome), % (test concentration not listed); hit rate 1.6% among 350,000;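 active means significant combined selectivity score with lowered wild-type GFP, culture density cut under 30%, mutant RFP and density less affected; inactive means any of these conditions unmet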; further: one replicate is shown; some compounds called inactive have numbers as strong as hits
FGF22 binding: binders of recombinant human FGF22 by thermal shift. SYPRO orange fluorescence; percent of sucrose octasulfate shift, DMSO zero. hit rate 1.5% among 340,000. calls only at 9.99 µM. Q9HCT0;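 active means melting point raised past a set limit in the mean and every replicate; three in four hits are not shown here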
rRNA inh HTS OD600: recorded beside rRNA inh HTS, whose call it bears; OD600 change, %; measured here: OD600 growth;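 optical density of the mix in the first replicate; 0 = DMSO median and -100 = no signal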
rRNA inh HTS RFP: second read-out of rRNA inh HTS, no call of its own (marks repeat the call); RFP signal change, %; measured here: RFP humanized mutant strains;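 first replicate; 0 = DMSO median and -100 = no signal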
An asterisk follows results filed as active; i = inactive; . = no result given; + = active, no number. Not all compounds are listed; the hit share may differ from the screen's.

The opening 2 compounds as a preview:
SMILES	Beta2AR agonist	ALR inh	UCH37 DUB inh	Ecoli growth	HNF4A DNA FP	rRNA inh HTS	rRNA inh HTS OD600	rRNA inh HTS RFP	FGF22 binding
C=CCc1ccccc1OCC(O)CN(CC)CC (stereo unspecified)	-9.5	-3.8	-0.1	0.685	5.4	.	.	.	.
O=C(CN1C(=O)NC2(CCCCC2)C1=O)Nc1cc(C(F)(F)F)ccc1N1CCCC1	0.1	.	0.0	0.684	2.1	0.2	-2.0	0.4	i

All compounds of this part, from the first entry:
SMILES	Beta2AR agonist	ALR inh	UCH37 DUB inh	Ecoli growth	HNF4A DNA FP	rRNA inh HTS	rRNA inh HTS OD600	rRNA inh HTS RFP	FGF22 binding
C=CCc1ccccc1OCC(O)CN(CC)CC (stereo unspecified)	-9.5	-3.8	-0.1	0.685	5.4	.	.	.	.
O=C(CN1C(=O)NC2(CCCCC2)C1=O)Nc1cc(C(F)(F)F)ccc1N1CCCC1	0.1	.	0.0	0.684	2.1	0.2	-2.0	0.4	i
COc1ccc(C(NC(N)=O)c2ccccc2)cc1 (stereo unspecified)	-2.1	-1.3	0.2	0.682	4.7	8.0	3.8	-0.1	.
COc1ccc(-c2n[nH]c(C)c2-c2cc(OC)ccc2O)cc1	5.8	9.0	0.4	0.702	-1.1	.	.	.	.
O=C(CSc1n[nH]c(=O)n1-c1ccc2c(c1)OCCO2)Nc1ccccc1	3.1	-0.3	2.1	0.684	1.8	-3.7	-1.4	0.2	i
CC(C)(C)c1cnnn1-c1ccc(NC(=O)c2ccc3c(c2)OCO3)cc1	2.8	-10.9	1.0	0.689	4.0	.	.	.	.
C#CCOCCOCCOCCNc1nc(N2CCN(C(=O)[C@H](CCCCN)n3cc(C(N)[C@H](C)CC)nn3)CC2)nc(N2CCN(C(=O)[C@H](CCC(=O)O)n3cc(C(N)[C@H](C)CC)nn3)CC2)n1 (stereo partly specified)	-4.9	-1.4	0.5	.	4.4	.	.	.	.
CCN(CC)C(=O)N1CCC(NC(=O)c2ccccc2)CC1	-5.1	-1.5	2.5	0.709	2.0	.	.	.	.
COc1cccc(C(=O)Nc2c(F)cccc2F)c1	4.1	-5.6	2.3	0.634	-1.7	4.5	4.1	0.4	i
Cc1ccc(C)c(C(=O)COC(=O)C(C)N2C(=O)C3C4CCC(C4)C3C2=O)c1 (stereo unspecified)	10.7	-6.7	5.4	0.682	0.9	-28.6*	-22.0*	-1.8*	i
O=Cc1ccc(C(=O)OCC(=O)NCc2ccco2)cc1	2.1	4.4	0.6	0.659	0.7	3.9	9.9	-0.1	i
COc1ccccc1NC(=O)Nc1ccccc1N1CCOCC1	-0.9	1.2	2.7	0.719	-2.3	-0.1	6.5	-2.8	i
O=C(Nc1nccs1)C1CC(=O)N(c2ccc(Cl)cc2)C1 (stereo unspecified)	-1.3	7.1	-1.0	0.658	-0.2	2.8	1.8	0.1	i
Cc1ccsc1C(=O)OCC(=O)NCCNC(=O)COC(=O)c1sccc1C	12.1	-5.0	5.0	0.704	2.8	12.2	16.4	2.5	i
CCOC(=O)C1=C(COC(=O)[C@H](C)NS(=O)(=O)c2ccc(NC(C)=O)cc2)NC(=O)NC1C (stereo partly specified)	6.1	.	0.7	0.712	1.3	10.3	20.1	-1.0	i
COC(=O)C(NC(C)=O)(Nc1nc2c(C)cc(C)cc2s1)C(F)(F)F (stereo unspecified)	12.8	-4.3	1.4	0.719	0.8	.	.	.	.
O=C1CCCCN1CC(=O)N1CCCC(Nc2ccc(F)c(F)c2)C1 (stereo unspecified)	-1.0	25.5	3.6	0.701	0.1	1.1	4.4	-1.7	i
O=C1OCCC1N1C(=O)c2ccccc2S1(=O)=O (stereo unspecified)	-1.1	-1.9	5.4	0.7	-0.6	.	.	.	.
CCn1c(SCC(=O)N2CCCC2)nnc1-c1ccco1	-10.0	.	5.0	0.711	-1.1	15.6	5.2	0.1	i
COc1cccc(CNC(=O)c2ccc(N3CCOCC3)c([N+](=O)[O-])c2)c1	2.9	-6.0	0.9	0.699	-1.6	-3.6	-2.3	-0.1	i
COc1ccc2[nH]c(O)c(NC(C)=O)c2c1	-0.4	-6.0	0.9	0.739	0.3	.	.	.	.
[N-]=[N+]=N[C@@H](CCN1CC[C@H](NC(=O)OCc2ccccc2)CCC1=O)c1ccccc1	1.3	0.3	0.8	.	-0.5	-4.8	-15.4	11.8	i
Cc1ccc(S(=O)(=O)NCC(=O)OCC(=O)c2ccc(Br)s2)cc1	-9.8	-9.9	1.7	0.669	2.6	.	.	.	.
Cc1ccc(N2C(=O)[C@@H]3C(C(=O)CN4C(=O)c5ccccc5C4=O)=NN[C@@H]3C2=O)c(C)c1	-1.0	0.9	-0.8	0.696	1.9	8.1	16.1	1.7	i
CC(=O)N1CCN(c2ccccc2NC(=O)c2cccs2)CC1	-6.4	-10.2	3.0	0.664	-1.5	-15.4	-32.1	3.0	i
CCOc1cc(C(=O)OCC(=O)Nc2cc(C)on2)cc(OCC)c1OCC	4.2	-4.2	1.5	0.679	-2.6	.	.	.	.
CNC(=S)NNC(=O)CCn1nc(C)c(Br)c1C	-0.8	25.6	0.3	0.697	-4.0	.	.	.	.
COc1cccc(CNc2ccc(C(=O)O)cc2)c1OCc1ccccc1	7.7	10.1	1.3	0.665	3.8	6.1	-5.2	2.0	i
Cc1cc(C)n2c(SCC#N)nnc2n1	-3.7	6.9	1.2	0.697	-1.4	15.4	16.9	1.1	i
CCN(CC)CCN1C(=O)C2C(C(=O)Nc3ccc(C(C)C)cc3)C3C=CC2(O3)C1C(=O)NC1CCCCC1 (stereo unspecified)	0.2	1.2	-0.2	0.707	3.2	5.1	2.9	4.6	i
COc1ccc(C)cc1S(=O)(=O)N1CCC(C(=O)N2CCN(C)CC2)CC1	0.9	0.3	0.7	0.65	-0.7	.	.	.	.
COc1c(Br)cc([N+](=O)[O-])c(OC)c1C(=O)NC(=O)Nc1cc(Cl)cc(Cl)c1	20.2	-7.6	4.2	0.665	4.3	.	.	.	i
Cc1ccc(CCNC(=O)c2coc3nc4ccccc4nc23)cc1	-0.8	-1.1	-6.3	0.728	12.3	.	.	.	.
Cc1cccc(CNc2ncnc3ccc(-c4ccoc4)cc23)c1	-0.3	4.6	-6.5	0.694	3.2	10.2	2.6	9.2	i
COc1ccc(-n2c(SCC(=O)N3CCOCC3)nc(O)c(Cc3ccccc3)c2=O)cc1	-2.0	0.4	30.0*	0.698	0.2	8.3	1.3	-2.0	.
CCOC(=O)C1=C(C)N=c2s/c(=C\C(=O)OC)c(=O)n2C1c1ccc(OC)cc1 (stereo unspecified)	5.6	-11.3	.	.	5.1	.	.	.	.
COc1ccc(N(CC(=O)NC2CC3CCC2C3)S(=O)(=O)c2ccc(C)cc2)cc1Cl (stereo unspecified)	.	.	.	.	1.9	-6.3	5.7	3.5	i
Cc1ccc(O)c(C(=O)CC(=O)c2ccccc2Cl)c1	4.1	44.8	-0.8	0.612	0.2	-50.2	-77.5	-14.2	i
COC(=O)C(C)(C)c1cccnc1C#N	-5.0	.	.	.	-4.3	9.4	-1.7	2.8	i
OC[C@@H]1CN(Cc2ccccc2)C[C@H](n2cnc3c(NC4CC4)ncnc32)O1	.	.	.	.	2.8	25.6	8.2	4.4	i
COC(=O)c1ccc(/C=C/C(=O)OCC(=O)Nc2ncc(Cl)cc2Cl)cc1	4.1	-1.1	1.1	0.642	3.7	.	.	.	i
CN(Cc1ccccc1)C(=S)Nc1ccc2nc3n(c(=O)c2c1)CCCCC3	-7.2	2.1	0.6	0.681	0.8	-7.8	-7.7	-2.9	i
COc1ccc(OC)c(C(=O)NC(CC(N)=O)c2ccc(NCCN3CCCC3)c([N+](=O)[O-])c2)c1 (stereo unspecified)	0.5	-0.2	4.4	0.666	1.9	7.2	4.1	0.5	i
Nc1cccnc1S(=O)(=O)c1ccccc1	-0.8	-76.0	-17.7	0.686	1.4	14.3	19.1	-0.1	i
COc1cccc(NC(=O)CN(C)S(=O)(=O)c2ccc3[nH]c(=O)oc3c2)c1	15.6	-5.1	0.0	0.67	0.1	-5.1	-0.6	-1.7	i
COc1ccc(-n2c(=S)[nH]c3cc(C(=O)NCCCN4CCOCC4)ccc3c2=O)cc1OC	0.5	5.6	2.8	0.671	1.1	1.9	11.0	-1.1	i
COc1ccc(NS(=O)(=O)c2cc(OC)ccc2OC)cc1	-0.9	-13.0	2.4	0.702	1.3	6.7	3.6	0.0	i
CC(Sc1nnnn1-c1ccc(O)cc1)C(=O)NC1CCCCC1C (stereo unspecified)	0.3	-3.3	2.3	0.682	1.9	-13.3	-23.4	-1.1	i
Cc1cc(Cl)ccc1Nc1ncccc1C(N)=O	-4.9	-0.4	3.5	0.681	4.6	1.5	6.4	0.4	i
COc1cc(-c2nnc(NC(=O)C3=COCCO3)o2)cc(OC)c1OC	-1.4	2.7	6.6	0.679	1.8	-5.6	-2.9	-2.5	i
COc1ccc(C2C(C#N)=C(N)OC(C(C)(C)C)=C2C#N)cc1OC (stereo unspecified)	0.2	-3.7	-4.5	0.717	0.9	.	.	.	.
CCOc1ccc(NC(=O)N2CCC(c3ccc(C)cc3)C2)cc1 (stereo unspecified)	19.1	0.0	0.2	0.684	-5.4	.	.	.	.
CCN(CC(=O)Nc1c(F)cccc1F)C(=O)c1ccc(Cl)c(S(=O)(=O)N2CCCC2)c1	-0.1	-10.5	-11.7	0.63	2.6	8.5	15.3	1.3	i
CCCNC(=O)c1ccc2c(=O)c(O)c(C)[nH]c2c1	2.6	73.0	-26.3	0.673	-3.1	10.4	8.8	12.3	i
COc1c(C)cc(C(=O)C2CCCN(C(=O)c3cc(C)n(C)n3)C2)cc1C (stereo unspecified)	-0.9	3.6	5.7	0.692	-1.1	-30.4	-28.8	-8.1	i
O=C(Nc1nc2c(s1)CCc1ccccc1-2)c1ccco1	1.7	-168.4	-6.5	0.616	7.0	.	.	.	.
CCCCCn1nc(C)c(/C=N\NC(=O)c2cc(C)oc2C)c1C	5.6	5.6	.	.	-1.0	6.3	1.1	1.0	.
CCOC(=O)C1(Cc2ccccc2C(F)(F)F)CCN(C2CCCC2)CC1	-2.3	.	-0.2	0.617	1.0	-1.1	-4.3	0.5	i
O=[N+]([O-])c1ccc(Nc2ccccc2)nc1	2.6	-1.8	7.0	0.685	0.2	17.8	-2.8	17.4	+
CC(C)[C@H](NC(=O)N1CCn2c1nc1ccccc12)C(=O)N1CCCCC1	-1.0	-0.2	1.9	0.623	-1.4	-1.7	6.8	-1.1	i
Next results follow.
SMILES	Beta2AR agonist	ALR inh	UCH37 DUB inh	Ecoli growth	HNF4A DNA FP	rRNA inh HTS	rRNA inh HTS OD600	rRNA inh HTS RFP	FGF22 binding
Cc1cc(C(=O)CN2C(=O)NC(C)(c3cc(F)ccc3F)C2=O)c(C)n1C1CC1 (stereo unspecified)	2.6	8.5	4.6	0.69	1.1	5.3	-19.6	18.2	i
COc1ccc2nc(C)cc(SCC(=O)N/N=C/c3cccc4ccccc34)c2c1	32.3	-0.1	.	.	13.7	.	.	.	.
O=C(N=Nc1c(O)[nH]c2ccc([N+](=O)[O-])cc12)c1ccccc1Cl	-1.8	-1.1	10.6	0.672	3.6	8.4	6.2	-3.1	i
Cc1nn(C)c2ncc(C(N)=O)c(Oc3ccc(Cl)cc3)c12	9.0	-0.1	2.5	0.705	-0.7	5.1	-11.1	2.1	i
CCOc1cc(NC(=S)NCc2ccco2)c(OCC)cc1NC(=O)C1CC1	-2.9	-10.7	4.2	0.693	3.6	.	.	.	.
Cc1ccc(C(CNS(=O)(=O)c2ccc(Cl)cc2)N2CCN(C)CC2)cc1 (stereo unspecified)	5.0	.	4.3	0.678	-2.5	4.9	8.4	0.4	i

Screens deposited in PubChem by several laboratories.
